Screens deposited in PubChem by several laboratories.
E coli growth: E. coli growth inhibition; Escherichia coli growth, OD600, 23 h; active compounds read low; OD600 absorbance (test concentration not listed); hit rate 0.21% among 330,000; AID 1053175;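 active means OD600 absorbance below the run mean of sample wells minus 3.6 SD, in any replicate, cut at about 0.56 in these data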;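 further: stock transfer was 300 nL into about 60 µL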
FGF22 binding: binders of recombinant human FGF22 by thermal shift. Q9HCT0. SYPRO orange fluorescence; percent of sucrose octasulfate shift, DMSO zero. calls only at 9.99 µM. hit rate 1.5% among 340,000;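 active means melting point raised past a set limit in the mean and every replicate; three in four hits are not shown here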
Target sequence (Q9HCT0 whole entry, looked up): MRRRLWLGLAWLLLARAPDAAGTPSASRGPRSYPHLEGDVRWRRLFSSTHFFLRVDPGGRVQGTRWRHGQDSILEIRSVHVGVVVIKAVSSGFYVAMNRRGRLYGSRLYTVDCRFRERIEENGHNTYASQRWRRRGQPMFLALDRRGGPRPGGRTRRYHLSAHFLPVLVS
ALR H2O2 inh: inhibitors of human sulfhydryl oxidase ALR; P55789; purified ALR, DTT oxidation, H2O2 HRP-luminol luminescence; hit rate 3.8% among 290,000; AID 485317; inhibition, % (test concentration not listed);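 active means mean and each replicate at 75% or more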;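 further: stock transfer was 7.5 nL into about 7.5 µL; 0% = neutral wells and 100% = wells with inactivated enzyme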
Target sequence (P55789 whole entry, looked up): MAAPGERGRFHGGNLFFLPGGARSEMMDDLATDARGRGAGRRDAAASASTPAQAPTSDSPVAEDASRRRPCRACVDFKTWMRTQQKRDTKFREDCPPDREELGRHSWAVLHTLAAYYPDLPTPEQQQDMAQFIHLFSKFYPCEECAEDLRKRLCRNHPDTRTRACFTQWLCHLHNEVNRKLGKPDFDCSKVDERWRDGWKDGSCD
UCH37 inh: human UCH37 deubiquitinating enzyme inhibition. AID 588478. purified proteasome/UCH37, Ub-AMC cleavage fluorescence. Q9Y5K5. hit rate 0.33% among 330,000. inhibition, % (test concentration not listed);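 active means mean of two replicates above 20%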;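 further: 0% = compound-free wells with enzyme and 100% = wells lacking proteasome; stock transfer was 100 nL into about 20 µL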
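Test system – human UCH37 enzyme supplied as purified proteasome complex · Incubation – 30 min preincubation with enzyme, 25 min cleavage at room temperature · Detection – AMC fluorescence from Ub-AMC cleavage, excitation 355 nm, emission 460 nm · Benchmarks – no-proteasome wells (full inhibition) and compound-free wells (no inhibition)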
Beta2AR agonist: activates human beta-2 adrenergic receptor causing internalization. P07550. Am2.2-beta2AR cells, FAP receptor internalization, flow cytometry; reference of the scale not given here. hit rate 0.43% among 340,000. AID 504454. response, % (concentration not given with the values);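 active means response above a set limit, near 3 SD of response in nonfluorescent compounds, cut at about 42% in these data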;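 further: stock transfer was 100 nL into about 11 µL; a reference agonist was the positive control; negative values mostly stem from fluorescent compounds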
LANA-H2B inh: blocks KSHV LANA binding to histone H2A/H2B | Q9QR71 | AID 2629 | inhibition, % (test concentration not listed) | hit rate 0.6% among 320,000 | cell-free LANA-H2A/H2B peptide, fluorescence polarization; in the data active means inhibition mostly above about 10%, no sharp cut-off; inactive means mostly below about 6.7%;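 further: stock transfer was 7.5 nL into about 10 µL; 0% = median of vehicle wells and 100% = median of positive control wells; one replicate is shown; the record names a cut of 25% in any replicate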
HNF4A DNA FP: change in binding of human HNF4 alpha to DNA | hit rate 0.3% among 360,000 | P41235 | activity change, % at 10 µM | AID 1224865 | HNF4a-FITC DNA binding, fluorescence polarization, 1 h; in the data active means activity change above about 30%, passing the limit was not always enough;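 further: controls were the assay level and a saturating level of protein; the project sought stronger binding though the title names inhibitors; some compounds called inactive have numbers as strong as hits; positive values seem to mean higher polarization but the record does not say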
Target sequence (P41235 whole entry, looked up): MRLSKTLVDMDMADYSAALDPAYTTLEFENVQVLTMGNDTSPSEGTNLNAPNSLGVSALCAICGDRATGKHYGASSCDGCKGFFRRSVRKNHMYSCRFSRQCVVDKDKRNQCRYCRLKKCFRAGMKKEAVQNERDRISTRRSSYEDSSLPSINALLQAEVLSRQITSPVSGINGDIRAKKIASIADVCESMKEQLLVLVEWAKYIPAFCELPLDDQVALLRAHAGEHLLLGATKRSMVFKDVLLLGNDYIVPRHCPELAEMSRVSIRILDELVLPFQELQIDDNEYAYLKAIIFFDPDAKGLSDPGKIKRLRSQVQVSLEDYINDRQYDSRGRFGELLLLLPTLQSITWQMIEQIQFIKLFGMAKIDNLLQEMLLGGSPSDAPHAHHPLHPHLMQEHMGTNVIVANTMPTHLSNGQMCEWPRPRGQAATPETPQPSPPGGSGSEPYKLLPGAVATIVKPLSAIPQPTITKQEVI
An asterisk follows results filed as active; i = inactive; x = not tested or not shown; + = active, no number. These rows are one share of the data; count on the stated rates, not on these rows.

Second line of a record: E coli growth | FGF22 binding | ALR H2O2 inh | UCH37 inh | Beta2AR agonist | LANA-H2B inh | HNF4A DNA FP
1. CCN1CC(C)(C)N(C(=O)c2ccccc2)CC1(C)C
    x | i | x | x | -4 | x | 4.5
2. COc1ccc(C2c3c(ccc4ccccc34)Oc3ncn4nc(Cc5ccc(OC)c(OC)c5)nc4c32)cc1 (stereo unspecified)
    0.74 | x | -4 | 0.7 | x | -8.1 | x
3. Cc1nc(-c2cn[nH]c2)c2cc(C)oc2n1
    0.74 | x | -3 | -4.2 | -3 | -6.3 | -0.2
4. Cc1ccc2nc(C3CCN(C(=O)c4ccco4)CC3)[nH]c2c1
    0.69 | x | -13 | 6.0 | -3 | 1.2 | -4.8
5. O=C(c1ccccc1Cl)N(Cc1ccc(Br)cc1)N1C(=O)CCCC1=O
    0.66 | i | 0 | 1.9 | 3 | -3.1 | -0.3
6. O=C(/C=C/c1ccc(Cl)cc1)NCCSc1ccccc1
    0.67 | x | x | 2.2 | -2 | -4.4 | -2.0
7. COc1ccc(CC(=O)OCc2cc3ccc(C)cc3[nH]c2=O)cc1
    0.76 | x | -6 | -2.4 | 8 | 0.1 | 1.6
8. CCN1CCN(C(=O)C23CCC(C)(C(=O)C2Br)C3(C)C)CC1 (stereo unspecified)
    0.64 | i | -24 | 2.5 | 3 | 1.9 | -1.2
9. O=c1c(Cl)c(N2CCN(c3ccc(F)cc3)CC2)cnn1C12CC3CC(CC(C3)C1)C2
    0.7 | i | 77* | 1.2 | -3 | 1.5 | 0.3
10. O=[N+]([O-])c1cccc(COc2ccccc2CN2CCOCC2)c1
    x | i | x | x | -3 | x | 1.3
11. O=C(NCc1ccc2c(c1)OCO2)C(=O)NCC1OCCCN1S(=O)(=O)c1ccc(F)cc1 (stereo unspecified)
    0.71 | i | -11 | 5.9 | -2 | -1.4 | -0.2
12. CCN(CC)Cc1c(O)c(Cl)cc2c(C)c(C)c(=O)oc12
    0.73 | x | 39 | i | 8 | 8.1 | -0.4
13. COc1ccc(/C=C/C(=O)OCC(=O)Nc2cccc(C(C)=O)c2)cc1
    0.67 | x | -7 | -1.1 | -1 | 4.5 | 0.7
14. CCCn1c(C)cc(C(=O)COC(=O)c2ccc(Cl)c(S(=O)(=O)N3CCCC3)c2)c1C
    0.78 | x | -1 | -3.5 | 7 | 1.1 | 0.8
15. C=CCN1CC(=O)N2C(C)c3[nH]c4ccccc4c3C[C@H]2C1=O (stereo partly specified)
    0.67 | i | x | 1.9 | 3 | -2.7 | 3.0
16. COC(=O)[C@H](CCSC)NC(=O)Cn1cc(C)c(=O)[nH]c1=O
    x | i | x | x | 0 | x | 1.0
17. CCOC(=O)c1ccc(NC(=O)c2nc[nH]c2C(=O)NCCCCNC(=O)c2[nH]cnc2C(=O)Nc2ccc(C(=O)OCC)cc2)cc1
    x | i | 3 | x | 5 | 3.7 | 3.2
18. COC(=O)c1sc2ncn(CC(=O)N(C)C3CCCCC3)c(=O)c2c1C
    0.7 | i | -2 | -3.8 | 2 | -1.1 | -1.4
19. COC(=O)c1cc(Br)c(=O)n(-c2ccc(F)cc2)c1
    0.69 | x | -11 | 1.2 | -4 | -1.0 | 2.9
20. Cc1ccnc(NC(=O)c2ccc(N3C(=O)CCC3=O)cc2)c1
    0.68 | x | -1 | 1.1 | -5 | 8.2 | 0.7
21. O=C(Nc1cccc2cccc(NC(=O)c3ccco3)c12)c1ccco1
    0.69 | x | -13 | 2.7 | 6 | 4.0 | -0.8
22. CCOC(=O)C1=C(C)NC2=C(C(=O)CCC2)C1c1ccc(O)c(OCC)c1 (stereo unspecified)
    0.67 | x | -6 | -0.9 | -3 | 1.2 | -0.3
23. O=C(c1cc2ccccc2o1)N1CCN(S(=O)(=O)c2cccs2)CC1
    0.81 | x | -2 | 1.0 | -1 | 1.2 | 4.3
24. Cc1cnn(CCC(=O)NNC(=S)Nc2cccc(Cl)c2)c1
    0.74 | x | 44 | 2.0 | 9 | 7.4 | 0.3
25. O=C(CSc1nnc(NC(=O)c2ccc(F)cc2F)s1)NC1CCCC1
    0.71 | i | x | 2.4 | -2 | 0.0 | 2.6
26. CCOc1ccc(S(=O)(=O)N2CCC(C(=O)NCc3ccncc3)CC2)cc1Cl
    0.7 | i | 5 | 2.4 | -23 | -7.7 | 0.5
27. COc1ccc(N2CC(C(=O)Nc3nc4ccccc4s3)CC2=O)cc1 (stereo unspecified)
    0.62 | i | -2 | 3.4 | -3 | -0.6 | 4.0
28. O=C(CCCN1C(=O)/C(=C/c2cccc(Br)c2)SC1=S)Nc1cccnc1
    0.68 | i | -2 | 4.5 | 10 | 1.7 | -1.5
29. CN1C(=O)NC(c2ccc(O)cc2)C2=C1CN(c1cccc3ccccc13)C2=O (stereo unspecified)
    0.66 | i | 2 | 1.4 | -22 | 4.1 | -2.0
30. COc1ccc(/C=C2/SC(c3ccc(C)cc3)=NC2=O)cc1OC
    0.7 | x | -3 | 1.0 | -15 | -2.0 | 101
31. Cc1ccc(S(=O)(=O)CCC(=O)OCc2ccc(Cl)cc2)cc1
    0.7 | i | x | 4.7 | 6 | 1.3 | 0.3
32. COc1ccc(S(=O)(=O)N/N=c2\oc3c(OC)cccc3cc2S(=O)(=O)c2ccc(C)cc2)cc1OC
    x | + | 2 | x | -9 | 1.7 | -2.6
33. Cc1ccccc1N1CCN(C(=O)C2CCC(=O)N(C3CCCC3)C2)CC1 (stereo unspecified)
    0.72 | i | -2 | 4.1 | 3 | 1.0 | -0.8
34. N#C/C(=C\c1ccc(O)c(O)c1)C(=O)NCCCc1ccccc1
    x | i | x | 4.9 | -5 | 1.1 | -1.7
35. Cc1ccc(Sc2cc(Cl)nc(N)n2)cc1
    0.69 | x | -3 | x | 3 | 1.3 | 1.5
36. COc1ccc(-c2nc(C#N)c(NCc3ccc(F)cc3)o2)cc1OC
    0.74 | x | 9 | -11 | -3 | -6.8 | 0.0
37. COc1ccc(CCNC(=O)CSc2ccc(-c3cccs3)nn2)cc1
    0.67 | i | -25 | -0.9 | -9 | 3.1 | 2.0
38. CC(C)(C)c1nnc(SCC(=O)c2ccccc2)n(N)c1=O
    0.69 | x | x | -3.3 | -21 | 5.2 | -0.9
39. CC(C)=C(NC(=O)c1ccccc1)C(=O)Nc1cccc(C(=O)O)c1
    0.69 | i | -6 | 1.5 | 6 | 8.8 | 3.0
40. COc1ccc(S(=O)(=O)N2CCCC2C(=O)Nc2ccc(O)cc2)cc1 (stereo unspecified)
    0.79 | i | 45 | 0.9 | 0 | -5.1 | 5.5
41. CC(C)(C)OC(=O)N(CCc1ccccc1)Cc1ccccc1OCc1ccc(NC(=O)C2CCCC2)cc1
    x | i | x | x | 0 | x | -0.9
42. O=S(=O)(CCN1CCN(c2ccccn2)CC1)c1ccc(F)cc1
    0.7 | i | 0 | 1.9 | -3 | 1.7 | -0.2
43. O=[N+]([O-])c1cc(-c2cnc3ccccc3n2)ccc1Oc1ccc(F)cc1
    0.75 | x | -7 | 2.9 | -10 | 2.2 | -0.6
44. CS(=O)(=O)N(CC(=O)O)c1ccc(Oc2ccccc2)cc1
    0.72 | x | 6 | 5.0 | 1 | -6.9 | 6.6
45. COc1ccccc1CNC(=O)C1CCN(Cc2nc(-c3cccc(Cl)c3)oc2C)CC1
    0.73 | x | -10 | 0.4 | 7 | 6.6 | -0.1
46. COC(=O)C(NC(C)=O)(Nc1nc2ccc(C)cc2s1)C(F)(F)F (stereo unspecified)
    0.72 | x | -2 | 7.0 | -5 | 2.0 | -0.4
47. CC(=O)Nc1cccc(OCCOc2cccc([N+](=O)[O-])c2)c1
    x | i | x | x | -3 | x | 3.0
48. N#Cc1c(NC(=O)C(=O)NCCCN2CCOCC2)sc2c1CCCC2
    0.7 | i | 96* | 11 | -8 | -1.1 | 3.9
49. C=CCN1C(=O)C(Cc2ccc(OC)cc2)S/C1=N/N=C/c1ccco1 (stereo unspecified)
    x | x | -2 | x | -14 | -3.2 | -0.9
50. COc1ccc(NC(=O)CCCC(=O)OCC(F)(F)C(F)F)cc1
    0.66 | x | -15 | 5.0 | -1 | 2.1 | -1.3
51. O=C1C=C(c2ccccc2)C[C@@H](c2ccc(Cl)cc2)C1
    x | i | 1 | 4.2 | -6 | 2.3 | -0.1
52. O=C(Cn1c(=O)n(-c2ccc(F)cc2)c(=O)c2sccc21)c1ccccc1
    0.67 | x | -1 | 2.1 | 4 | 0.7 | 6.0
53. CC1(NC(=O)C2CCCCC2)CCS(=O)(=O)C1 (stereo unspecified)
    0.68 | i | -15 | 0.2 | -3 | 0.6 | 2.0
54. Cc1cc(C(=O)CN2C(=O)C(=O)N(Cc3ccccc3)C2=O)c(C)n1-c1ccc2c(c1)OCCO2
    0.72 | x | -7 | 1.7 | 9 | 1.1 | 1.4
55. O=C(CSc1nnc(-c2ccccc2)n1C1CCCCC1)Nc1ccc(S(=O)(=O)Nc2ccccn2)cc1
    0.73 | x | -8 | 2.3 | 3 | -6.8 | -0.9
56. Cn1cnc2nc3n(c2c1=O)CCC3
    0.66 | x | -3 | 1.6 | 3 | -5.0 | -0.9
57. COc1ccc(C2Nc3cc(OC)ccc3-n3cccc32)cc1 (stereo unspecified)
    0.67 | i | 42 | -375 | 13 | -2.7 | 5.1
58. CCO[C@H]1OC(C(N)=O)=C[C@@H](c2coc3ccccc3c2=O)[C@@H]1CCCO
    x | i | -6 | -0.4 | -6 | 13 | -4.0
59. COc1ccc(OC)c(S(=O)(=O)Nc2cccc3ccc(O)cc23)c1
    0.67 | i | 50 | 0.6 | 1 | 1.6 | 1.9
60. O=C(CCC(=O)c1cccs1)Nc1nc2ccccc2s1
    0.7 | i | -16 | 3.8 | 2 | 0.5 | 5.6

Nothing new here: 4 of the compounds above.
Second line of a record: E coli growth | FGF22 binding | ALR H2O2 inh | UCH37 inh | Beta2AR agonist | LANA-H2B inh | HNF4A DNA FP
1. CCN1CC(C)(C)N(C(=O)c2ccccc2)CC1(C)C
    x | i | x | x | -4 | x | 4.5
2. COc1ccc(C2c3c(ccc4ccccc34)Oc3ncn4nc(Cc5ccc(OC)c(OC)c5)nc4c32)cc1 (stereo unspecified)
    0.74 | x | -4 | 0.7 | x | -8.1 | x
3. Cc1nc(-c2cn[nH]c2)c2cc(C)oc2n1
    0.74 | x | -3 | -4.2 | -3 | -6.3 | -0.2
4. Cc1ccc2nc(C3CCN(C(=O)c4ccco4)CC3)[nH]c2c1
    0.69 | x | -13 | 6.0 | -3 | 1.2 | -4.8

New compounds follow
| cpd | structure | E coli growth | FGF22 binding | ALR H2O2 inh | UCH37 inh | Beta2AR agonist | LANA-H2B inh | HNF4A DNA FP |
| --- | --- | --- | --- | --- | --- | --- | --- | --- |
| 61 | CCCCCC(CC(=O)NO)C(=O)NC(C(=O)N1CCCC1CO)C(C)C (stereo unspecified) | 0.47 | i | 40 | 0.9 | -2 | 7.8 | 4.0 |
| 62 | O=C(COC(=O)c1ccccc1SCC(=O)N1CCCC1)Nc1ccccc1OC(F)F | 0.68 | i | x | 3.8 | 11 | 0.5 | -1.4 |
| 63 | COc1ccc2nc(NC(=O)CSc3nc(C)cc(=O)[nH]3)sc2c1 | 0.65 | x | x | -0.4 | 6 | 1.9 | 2.1 |
| 64 | C=CCC(Nc1ccccc1)c1cccc(OC)c1OC (stereo unspecified) | 0.66 | i | 99* | 3.2 | 3 | 0.2 | -1.0 |
